gsp agonist – gsp mutant agonism; gsp mutant cells, cAMP HTRF, 30 min; control for the full effect not named in the record; Potency, µM (series often up to 76.9 µM), inactives show top-dose activation (cAMP increase), hits mostly activators; hit rate 0.13% among 340,000; AID 624287; active = well fitted activation curve with a large enough effect; inconclusive = small, poorly fitted or top-dose-only effect, or another doubt; inactive = no such curve, though single readings can be large or run the other way; cell line not stated here;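 also: phosphodiesterase inhibitor Ro 20-1724 added with compounds to block cAMP breakdown; potency is read from the fitted curve at half-maximal effect; nearly all actives have a fitted effect of over 60% in size; about a fifth of the inactives were tested at one dose only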
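Cells in DMEM/10% FBS with G418 were pretreated with compounds in DMSO plus […] (300 uM stock) for 30 min at 37C. cAMP was measured by HTRF (cAMP-d2 plus anti-cAMP antibody-K) after 30 min at room temperature.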
Menin MLL FP FL – inhibitors of human menin-MLL interaction, wild-type MLL peptide; Fluorescence polarization, fluorescein-MLL peptide displacement from menin; FP activity change, % at 61.4 µM; 290,000 tested, under 10 active; inconclusive = falling polarisation curve, or a change in total fluorescence; inactive = total fluorescence flat and polarisation flat or rising; no compound was filed as active; the % refers to the polarisation; negative = inhibition;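 also: % of control where 0% means no effect; inhibitors lower the polarisation; unlabelled MLL peptide was the positive control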
Sfp inh – blocks B. subtilis Sfp PPTase activity. Q9F4F7. Biochemical Sfp PPTase activity, qHTS. Potency, µM, for the others: max response, negative = inhibition, usual class: inhibitors. hit rate 3.5% among 310,000; active = well fitted inhibition curve with a large enough effect; inconclusive = small, poorly fitted or top-dose-only effect, or another doubt; inactive = no such curve, though single readings can be large or run the other way;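 also: the enzyme is Sfp with the accession as filed and its product quenches rhodamine fluorescence; potency is read from the fitted curve at half-maximal effect; 0% = enzyme reaction without inhibitor and -100% = no enzyme wells; top concentration of the series not given in the record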
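Fluorescence-quenching assay with 15 nM Sfp, 5 uM rhodamine-CoA and 12.5 uM BHQ-2-labelled ybbR peptide in pH 7.6 Hepes/MgCl2 buffer. Enzyme was pre-incubated with compound for 15 min at room temperature. Rate was taken from the 30-min fluorescence change (525/598 nm).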
gsp antagonist – gsp mutant antagonism. hit rate 0.4% among 340,000. gsp-mutant cells, cAMP HTRF, 30 min; control for the full effect not named in the record. Potency, µM (series often up to 76.9 µM), for inactives: at the top dose activity change, negative = inhibition, usual class: inhibitors; active = falling curve of any shape with a large fitted effect; inconclusive = falling curve, mostly with a smaller effect; inactive = flat or rising curve; cell line not stated here;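 also: intracellular cAMP measured with PDE inhibitor Ro 20-1724 present during compound exposure; potency is read from the fitted curve at half-maximal effect; % is scaled to controls: 0 for no effect and ±100 for the full control effect; nearly all actives have a fitted effect of over 65% in size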
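G418-selected cells were plated in DMEM/10% FBS for 16-24 h at 37C, then treated with compounds plus the PDE inhibitor […] (300 uM solution added) for 30 min at 37C. Intracellular cAMP was measured by HTRF after 30 min lysis at room temperature.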
CtBP-E1A inh – blocks the CtBP interaction with E1A | hit rate 0.49% among 340,000 | AlphaScreen GST-E1A/His-CtBP binding, 1536-well; hits give low values; control for the full effect not named in the record | activity change, % (no concentration beside the values) | AID 651724; in the data active means activity change below about -65%; inconclusive means about -30% to -65%; inactive means above about -30%; also: % is scaled to controls: 0 for no effect and ±100 for the full control effect; compound concentration not given in the record
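Homogeneous bead-based format: GST-tagged E1A captured on glutathione donor beads, His-tagged CtBP on nickel acceptor beads; compounds precede bead addition by 2 h at 37 °C.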
ClpP mod – qHTS Assay for Activators of ClpP | ATP-dependent Clp protease proteolytic subunit (Bacillus subtilis (strain 168)), P80244 | purified B. subtilis ClpP, FRET peptide cleavage, 20 min | Potency, µM (titrated, usually from 57.5 µM), inactives show top-dose activity change, negative = active | hit rate 1.9% among 340,000 | AID 651965, 2013; active = well fitted falling curve with a large enough effect; inconclusive = small, poorly fitted or top-dose-only effect; inactive = no such curve, though single readings can be large or run the other way; also: potency is read from the fitted curve at half-maximal effect; the source files actives as falling curves though it sought activators and does not explain the sign; nearly all actives have a fitted effect of over 65% in size; many hits overshoot -100%
Target sequence (P80244 whole entry, looked up): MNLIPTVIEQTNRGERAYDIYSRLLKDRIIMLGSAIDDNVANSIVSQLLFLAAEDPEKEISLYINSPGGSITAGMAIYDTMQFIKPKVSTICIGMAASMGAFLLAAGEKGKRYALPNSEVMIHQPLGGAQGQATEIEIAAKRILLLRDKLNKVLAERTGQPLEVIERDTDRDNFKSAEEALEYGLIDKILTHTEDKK
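ClpP 10 microg/mL final, pH 8 Tris/KCl buffer with BSA, glycerol, Tween-20; compound pinned in; FRET-FV substrate; RT 20 min; Ex320/Em430; ΔFRET vs ADEP 5.8 microM, DMSO, no enzyme.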
TRPV1 potentiator – enhances activation of the human vanilloid receptor TRPV1; Q8NER1; TRPV1-expressing cells, Fluo-8 calcium influx, capsaicin EC20 potentiation; host cell line not named in the record; control for the full effect not named in the record; potentiation, % at 8.33 µM; hit rate 0.02% among 320,000; active means potentiation above 80%; inconclusive means 30% to 80%; inactive means below 30%; also: 0% is about no effect
Target sequence (Q8NER1 whole entry, looked up): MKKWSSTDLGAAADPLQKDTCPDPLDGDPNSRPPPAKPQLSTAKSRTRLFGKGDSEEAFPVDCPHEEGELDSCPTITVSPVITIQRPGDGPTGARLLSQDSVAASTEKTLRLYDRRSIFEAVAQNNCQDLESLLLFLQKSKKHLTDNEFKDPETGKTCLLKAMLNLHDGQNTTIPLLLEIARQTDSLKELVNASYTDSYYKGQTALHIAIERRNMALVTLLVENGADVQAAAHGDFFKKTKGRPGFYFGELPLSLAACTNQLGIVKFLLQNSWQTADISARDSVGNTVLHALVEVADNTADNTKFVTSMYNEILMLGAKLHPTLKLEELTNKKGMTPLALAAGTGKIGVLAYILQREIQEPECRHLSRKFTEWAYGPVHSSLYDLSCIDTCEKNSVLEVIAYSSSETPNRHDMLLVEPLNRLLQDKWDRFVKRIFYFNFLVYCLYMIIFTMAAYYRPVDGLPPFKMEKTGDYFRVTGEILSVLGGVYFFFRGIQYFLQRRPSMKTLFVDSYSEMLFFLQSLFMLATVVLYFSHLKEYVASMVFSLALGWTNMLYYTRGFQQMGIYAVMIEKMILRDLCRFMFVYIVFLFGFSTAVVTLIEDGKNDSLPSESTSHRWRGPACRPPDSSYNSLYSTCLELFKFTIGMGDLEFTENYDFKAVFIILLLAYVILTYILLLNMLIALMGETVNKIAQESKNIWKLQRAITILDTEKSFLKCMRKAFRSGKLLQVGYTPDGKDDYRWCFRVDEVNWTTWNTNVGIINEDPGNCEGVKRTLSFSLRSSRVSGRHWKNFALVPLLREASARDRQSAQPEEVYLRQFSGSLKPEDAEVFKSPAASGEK
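TRPV1-expressing cells were cultured overnight at 35.5C and loaded with Fluo-8 calcium dye for 40 to 90 min at room temperature. After a 10 s baseline, compound was added and calcium influx was read kinetically for 3 min (ex 480/em 520 nm).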
Numbers without * were called inactive; ? = inconclusive; nt = no result given; [ ] = dose if it differs, or a comment.

SMILES	gsp agonist	Menin MLL FP FL	Sfp inh	gsp antagonist	CtBP-E1A inh	ClpP mod	TRPV1 potentiator
CCc1ccccc1N1C(=O)CC(N2CCc3ccccc32)C1=O (configuration not stated)	4.1%[15.4 µM]	-1.4	17.4%	15.3%	4.0	nt	8.9
Cc1ccc(S(=O)(=O)NCc2ccncc2)c(C)c1C	-23.4%	7.3	44.7µM*	-5.1%	-7.6	nt	19.2
CN(CC(=O)Nc1cccc(F)c1)C(=O)CCCN1C(=O)c2cccc3cccc(c23)C1=O	-15.4%[15.4 µM]	nt	nt	-15.5%	-10.4	14.1µM*	-17.8
Cc1ccc(-n2c(P(C)(=O)O)nc3ccccc32)cc1	-3.2%[15.4 µM]	1.6	-4.6%	nt	-4.6	nt	5.4
CC(=O)Nc1ccc(N2CCCCC2)c(C(=O)Nc2cccc(C)c2)c1	16.6%	1.3	-5.8%	-14.8%	-6.4	-6.0%	-19.9
COCCNC(=O)CSc1nc(-c2ccc(OC)c(OC)c2)cc(C(F)(F)F)n1	7.6%	-1.7	9.2%	5.1%	-3.9	-19.5%	-0.4
COc1ccc(NC(=O)C(C)N=C2NS(=O)(=O)c3ccccc32)cc1S(N)(=O)=O (configuration not stated)	?	nt	nt	10.3%	2.2	-0.8%	-3.8
C[C@@H]1CN([C@H](C)CO)C(=O)CCCn2nncc2CO[C@H]1CN(C)S(=O)(=O)c1ccc(Cl)cc1	-33.0%	nt	nt	nt	-0.2	1.7%	nt
COC(=O)c1ccc2c(=O)n(CCCN3CCCC3=O)c(=S)[nH]c2c1	?	3.5	-15.4%	-10.6%	0.4	-1.1%	-7.5
CN(C)S(=O)(=O)c1ccc(C(=O)N2CCN(S(=O)(=O)c3ccc4c(c3)OCCO4)CC2)cc1	27.8%	nt	nt	-15.4%	13.0	0.9%	nt
CC(OC(=O)CNS(=O)(=O)c1ccc(C#N)cc1)C(=O)Nc1ccc(Cl)cn1 (configuration not stated)	1.9%	nt	nt	-6.5%	8.8	1.7%	10.6
C#CCOCCOCCOCCNc1nc(N2CCN(C(=O)CCCCCCCCCCNC(=O)[C@@H](CCC(=O)O)n3cc(CCCCCN)nn3)CC2)nc(N2CCN(C(=O)CCCCCCCCCCNC(=O)[C@@H](CCC(=O)O)n3cc(CCCCCN)nn3)CC2)n1	nt	nt	nt	-7.0%	1.3	1.9%	-15.2
Clc1ccccc1Cc1noc(CN2CCN3CCCC3C2)n1 (configuration not stated)	?	-8.5	4.9%	8.9%	nt	-1.6%	-0.3
COc1ccc(CCN2CC(C(=O)N(C)CCOc3ccccc3)CCC2=O)cc1 (configuration not stated)	?	nt	4.5%	-18.8%	4.4	-0.2%	-7.2
O=C(CNc1cccc(C(F)(F)F)c1)N/N=C/c1cn(-c2ccccc2)nc1-c1ccccc1	-1.2%	2.3	-23.0%	-2.3%	4.8	-21.1%	-16.1
O=C(C1CCCN(S(=O)(=O)c2ccc([N+](=O)[O-])cc2)C1)N1CCCCC1 (configuration not stated)	?	nt	14.6%	-5.2%	-4.0	-0.5%	-7.0
COc1ccc(NC(=O)c2cc(Cl)ccc2NC(=O)c2ccco2)c(OC)c1	5.6%	7.5	15.8µM*	-11.7%	21.7	-2.9%	-2.6
CC1CCCCC1NC(=O)C(Cc1ccccc1)NS(=O)(=O)c1cccs1 (configuration not stated)	6.7%	-0.4	1.4%	-1.8%	-14.3	-4.9%	7.5
COC(=O)[C@]1(Cc2ccccc2)N[C@H](c2ccc(-c3cccc(Cl)c3)cc2)[C@@H]2C(=O)N(C)C(=O)[C@@H]21	nt	nt	nt	-12.1%	-10.1	-17.9%	-34.3
CCCCCCN1C[C@@H](n2cc(-c3ccc(F)cc3)nn2)[C@H](O)C[C@@H]1c1ccc(Cl)cc1	5.0%	nt	nt	nt	5.5	-1.4%	nt
Cc1cc(-c2ccc(C)c(S(=O)(=O)NCc3ccc(OC(C)C)cc3)c2)on1	1.1%	-5.5	7.9%	-14.9%	1.1	-0.8%	-11.8
COC(=O)c1sccc1NC(=O)C1C2C=CC(C2)C1C(=O)O (configuration not stated)	-12.0%	6.1	7.4%	15.5%	9.5	-4.3%	19.8
Cc1cccc(CN2C(=O)/C(=C\c3ccc(C(=O)NCCN4CCOCC4)cc3)Sc3ccccc32)c1	?	nt	?	-12.6%	-6.4	-9.4%	22.0
O=C(CCCc1ccccc1)Nc1ccccn1	-2.8%	-0.9	10.3%	10.8%	-8.9	nt	-11.3
Cc1ccc(S(=O)(=O)NCCNS(=O)(=O)c2ccccc2Br)cc1	nt	nt	nt	0.5%	2.9	-0.1%	nt
CCOC(=O)C1=C(c2ccccc2)NC(SCC(=O)Nc2ccc(C)cc2)=C(C#N)C1c1ccco1 (configuration not stated)	-16.9%	4.5	-10.4%	-15.0%	-0.9	?	-2.5
O=C(COc1ccc([N+](=O)[O-])cc1Cl)Nn1cnnc1	27.1%	6.4	5.7%	-4.3%	-0.2	-1.0%	?
COC(=O)c1ccc(CNC(=O)COC(=O)CCC(=O)c2ccc(F)cc2)cc1	10.5%	nt	nt	-6.9%	-0.1	0.9%	nt
CC(=O)OCc1c(C(F)(F)F)nn(C)c1SCc1ccc(Cl)cc1	-34.2%[inhibitor]	1.0	-2.7%	4.2%	17.3	-14.8%	6.6
O=C(COC(=O)c1ccccc1NC(=O)c1ccco1)NCCC1=CCCCC1	16.5%	2.8	6.8%	-12.7%	-0.8	?	-2.0
CC(Cc1ccccc1)=NNS(=O)(=O)c1ccc([N+](=O)[O-])cc1	-19.3%	nt	nt	7.2%	2.7	nt	nt
Cc1ccc(/C=C2/NC(=O)N(Cc3ccccc3)C2=O)s1	-21.2%	?	50.1µM*	7.6%	0.9	-1.2%	-10.0
COc1ccccc1OCC(=O)/C=C1/N(C)c2ccccc2C1(C)C	-9.3%[15.4 µM]	?	-7.6%	-43.3%	-0.8	nt	-4.8
Oc1ccc(/C=N/Nc2ccc(Cl)nn2)c(O)c1O	12.8%	?	10µM*	-13.0%	nt	0.7%	4.1
c1ccc2c(C[C@@H]3CNCCN3CCCCC3CCCCC3)cccc2c1	nt	nt	nt	8.6%	1.9	-0.6%	nt
Cc1ccc(CCNC(=O)CCS(=O)(=O)c2ccc(Br)cc2)cc1	-41.9%	-0.8	18.4%	-3.3%	nt	-0.7%	-26.7
Cc1ccc(NC(=O)CSc2nnc(CSc3nc(C)cc(C)n3)n2Cc2ccco2)c(C)c1	-23.5%	-0.9	?	-19.4%	2.7	1.3%	0.8
CC(C)C[C@H](NC(=O)N1CC(=O)Nc2ccccc21)C(=O)N[C@H](C(=O)O)c1ccccc1	nt	-2.7	-2.9%	10.2%	0.2	-1.0%	13.1
CCS(=O)(=O)n1nc(-c2ccccc2)nc1N	0.7%	3.0	14.7%	15.5%	-10.0	0.5%	-15.5
COc1cc2cc(/C=C/C(=O)c3ccco3)c(Cl)nc2cc1OC	-12.7%	?	?	?	1.4	-7.7%	0.4
Clc1ccc(N=c2ssnc2Cl)cc1	-28.2%	1.4	3.98µM*	?	15.2	2.0%	-8.6
COc1cccc(C(=O)c2c[nH]c(C(=O)NCCCN(C)C)c2)c1	6.2%[15.4 µM]	1.4	-10.8%	5.3%	-9.1	-1.1%	3.7
COc1cc(NS(=O)(=O)c2ccc(NC(=O)/C=C/c3ccc([N+](=O)[O-])cc3)cc2)ncn1	5.6%	-0.8	12.2%	-16.0%	nt	0.1%	?
O=C(Nc1ccc(Br)cc1)c1cc(S(=O)(=O)Nc2ccccn2)ccc1Cl	19.9%	1.6	9.1%	-10.9%	-4.1	nt	-2.7
O=C(COC(=O)Cc1cccs1)Nc1ccc(F)c(F)c1F	9.5%	2.2	11.7%	3.0%	2.9	-2.4%	-10.4
O=C(NCCc1nc2ccccc2[nH]1)/C(=C/c1ccc2c(c1)OCO2)NC(=O)c1ccccc1	6.2%	5.0	4.0%	0.1%	2.0	-3.5%	-0.4
COCCNC(=O)C(=O)NCC1OCCN1C(=O)c1ccc(Cl)cc1 (configuration not stated)	-31.6%[inhibitor]	-0.4	14.6%	8.5%	6.5	-0.6%	7.4
CCOC(=O)C1(Cc2ccc(Cl)cc2)CCN(Cc2nccn2CC)CC1	-2.5%	-3.8	16.4%	-1.3%	-15.3	nt	-7.8
COc1ccccc1NC(=O)N1CCCC1C(=O)NCc1ccccc1Cl (configuration not stated)	-26.4%	-8.0	9.7%	-2.2%	nt	-1.2%	-6.6
Cc1cc([N+](=O)[O-])nn1CC(=O)Nc1ccc(Cl)cn1	?	-1.4	9.0%	11.6%	2.7	nt	3.0
C[C@]12CC[C@H](O)CC1=CCC1C2CC[C@@]2(C)C1CC[C@@H]2NC(=O)CCC(=O)O (some centres not stated)	-1.1%[15.4 µM]	nt	nt	9.2%	5.9	0.2%	nt
O=C(C1=C[C@@H](c2ccc(Br)cc2)C[C@@H](OCc2ccc(CO)cc2)O1)N1CCN(Cc2ccc3c(c2)OCO3)CC1	13.3%	-0.2	6.9%	-9.1%	-15.3	0.6%	-3.3
CCN(c1ccccc1)P(=O)(Nc1ccccc1)Nc1ccccc1	3.7%[15.4 µM]	3.6	8.3%	-6.3%	6.8	nt	4.6
COc1ccc(CCCC(=O)NCC(=O)N/N=C/c2cc(Cl)ccc2OC)cc1	-4.4%	-2.4	2.3%	?	-3.7	14.0%	11.4
O=C(NC(=S)Nc1ccc(N2CCCC2)cc1)c1ccc(F)cc1	2.4%[15.4 µM]	-0.2	-5.7%	-0.7%	-0.5	2.1%	3.3
O=S(=O)(NC1=NCCC1)c1cccs1	-34.3%[inhibitor]	11.7	?	4.1%	-3.2	-1.5%	6.5
NC(=O)c1nsc(C(=O)N(c2ccc(Cl)cc2)C(C(=O)NCC2CCCO2)c2cccs2)c1N (configuration not stated)	-16.3%	-0.3	1.0%	?	-0.4	3.8%	-0.3
CCOc1ccc(S(=O)(=O)NCc2ccccn2)cc1NC(=O)c1ccccc1F	9.3%	-1.4	-6.9%	19.6%	-5.3	nt	28.9
COc1ccc(Cl)cc1Nc1cc(C)nc2ncnn12	-47.4%[inhibitor]	nt	nt	nt	-2.9	-0.3%	nt
Cc1cc(OCC(=O)N2CCOCC2)ccc1[N+](=O)[O-]	8.2%	1.9	18.2%	8.7%	-2.9	2.4%	-16.6
Cc1cccc(-n2ncc3c(NCCCn4ccnc4)ncnc32)c1	-18.8%	-0.8	?	-3.4%	-21.8	4.5%	13.5

Compound activity as filed in PubChem BioAssay.
